# Screens: PubChem, ICCB-Longwood Screening Facility, Harvard Medical School
# HCMV NEC inh: inhibitors of HCMV UL50-UL53 interaction, biochemical, HTRF; HCMV UL50-UL53 nuclear egress complex (human cytomegalovirus); normalized percent inhibition; AID 1918969, 2023; 0.15% of 190,000 active; inhibition, % (concentration not given with the values);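 active = both replicates at 50% or more, plus weaker picks with an unusually low signal ratio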;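 also: stock transfer was 100 nL into about 20 µL; 0% = negative control wells and 100% = wells with untagged competitor protein; inactives centre near -12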
# Sa growth inh: S. aureus growth inhibition at 42 and 30 °C, primary screen, LtaS inhibitor project, RN4220, two temperatures; OD600, 20 h, 42 °C; stronger effect = lower value; relative growth, % (test concentration not listed); 0.53% of 170,000 active; AID 720641, 2013;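 active = growth at 42 °C up to 50% and 20 or more points under that at 30 °C, or under 10% at both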;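 also: 300 nL library stock went into each well; scaled to the means of positive and negative controls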
# GIV Gai3 FP: inhibitors of GIV peptide binding to Galpha-i3, primary screen, biochemical, fluorescence polarization, FITC-GIV GBA peptide, rat Galphai3; AID 1224905, 2016; 90 min; stronger effect = lower value; scaled: aluminum fluoride 0%, vehicle 100%; percent of control (FP), % (concentration not given with the values); 0.42% of 210,000 active; Guanine nucleotide-binding protein G(i) subunit alpha-3 (Rattus norvegicus), P08753;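 active = replicate mean at 85% of control or lower, very high polarization wells dropped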;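 also: wells of about 15 µL received 100 nL stock; the first replicate is given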
# Target sequence (P08753 whole entry, looked up): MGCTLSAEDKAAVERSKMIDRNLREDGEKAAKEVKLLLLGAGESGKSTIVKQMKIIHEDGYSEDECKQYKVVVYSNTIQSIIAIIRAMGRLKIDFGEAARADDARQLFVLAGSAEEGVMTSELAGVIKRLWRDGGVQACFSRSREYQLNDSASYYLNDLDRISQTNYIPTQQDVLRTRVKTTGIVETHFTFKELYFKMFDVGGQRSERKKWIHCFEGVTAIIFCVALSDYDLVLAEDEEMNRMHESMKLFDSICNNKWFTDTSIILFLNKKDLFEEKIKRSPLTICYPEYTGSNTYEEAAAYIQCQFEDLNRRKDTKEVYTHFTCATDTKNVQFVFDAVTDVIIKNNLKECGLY
# Sa growth inh second temp: second read-out of Sa growth inh, no call of its own (marks repeat the call); relative growth, %; measured here: growth at 30 °C;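 optical density after 20 h as mean of two plates; 100% = untreated growth and lower means inhibition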
# * hit, by the source's call; nt = not tested or not shown; & = joins results of further samples.
SMILES	HCMV NEC inh	Sa growth inh	Sa growth inh second temp	GIV Gai3 FP
COc1ccc(C2CC(c3ccc(Br)cc3)=NN2C(=O)CSc2nnc3[nH]c(=O)cc(C)n23)cc1 (stereo not given)	-45	86	80	105
Cc1cc(N2CCC(C)CC2)nc2ccc(NC(=O)/C=C/c3cccc(Cl)c3)cc12	-7	111	87	95
Fc1ccc(CN2CCCC2c2ccc(Cl)cc2)cc1F (stereo not given)	-27	nt	nt	99
CCOC(=O)c1c(C)[nH]c(CCC(=O)NCCCN2CCN(c3ccccc3F)CC2)c1C	nt	89	91	103
CN(CC(=O)Nc1nccs1)S(=O)(=O)c1ccc2c(c1)CCC(=O)N2	1	104	88	104
CC(C)(C)c1nc(NCc2cccs2)c2nnn(Cc3ccccc3Cl)c2n1	-10	94	92	95
CCCCCOc1ccc(C(=O)N(Cc2ccccc2)C2CCS(=O)(=O)C2)cc1 (stereo not given)	-14	83	87	96&104
O=C1CCCN2N=C(SCc3ccc(C(F)(F)F)cc3)SC2=N1	nt	95	86	102
COc1ccc(CNn2c(-c3cc(OC)c(OC)c(OC)c3)nc3ccccc3c2=O)cc1OC	-28	nt	nt	101
COCCN1C2=C(C(=O)CC(C)(C)C2)C(c2cc(Br)c(O)c(OC)c2)C2=C1CC(C)(C)CC2=O	-24	86	89	102
CSc1nc(N)nc(-c2cccs2)c1C#N	-26	98	70	109
COc1ccc(CCNC(=O)c2c(C)oc3ncnc(N4CCOCC4)c23)c(OC)c1	nt	82	86	95
O=C(c1ccco1)N1CCN(CC(O)COC(c2ccc(Cl)cc2)c2ccc(Cl)cc2)CC1 (stereo not given)	-17	65	16	nt
O=C(c1cnc2cc(-c3ccccc3)nn2c1)c1cc(Br)ccc1O	6	nt	nt	104
NNc1nnc(Cl)c2ccccc12	-70	44	4	103
CC(=O)Oc1cc(C)ccc1C(C)C	-34	104	97	nt
CCOc1ccccc1C1C(C(=O)OC)=CN(CC23CC4CC(CC(C4)C2)C3)C=C1C(=O)OC	-6	99	92	nt
N#Cc1cc2c(=O)n3ccccc3nc2n(-c2nccs2)c1=O	-84	108	86	100
CCC(c1nnnn1CCOC)N(Cc1cc2ccc(OC)cc2[nH]c1=O)C1CCCC1 (stereo not given)	-30	110	78	100
CC1(C)CCC(C(C)(C)O)CC1	-2	96	86	102
COc1cccc(C(=O)n2nc(-c3ccco3)nc2NCc2cccs2)c1	-33	101	88	102
Cc1ccn(C(=O)c2ccc(NC(=O)C3CCCCC3)cc2)n1	-6	81	79	101
CC(=O)N1CCc2c(sc3c2c(=O)n(-c2ccccc2Cl)c(=O)n3Cc2cccc(C)c2)C1	nt	81	52	104
O=C1CS/C(=N/c2nc(-c3ccccc3)cs2)N1	-17	105	78	102
CC(C)C(NS(=O)(=O)c1ccc2c(c1)oc(=O)n2C)C(=O)NCCc1ccc(Cl)cc1 (stereo not given)	-10	111	91	100
NC(=O)CC1SC(N)=NC1=O (stereo not given)	13	96	112	102
COc1cc(C2Nc3cc(C)c(C)cc3NC3=C2C(=O)CC(C)(C)C3)c(OC)cc1Br (stereo not given)	-1	nt	nt	105
Cc1[nH]nc2c1C(c1cc(F)cc(F)c1)CC(=O)N2 (stereo not given)	-6	nt	nt	106
Cc1ccccc1NC(=O)CN1C(=O)CC(C)Sc2ccccc21 (stereo not given)	-16	nt	nt	105
COc1ccc(NC(=O)c2nn3c(c2Br)NC(c2cccs2)CC3C(F)(F)F)c(OC)c1 (stereo not given)	-16	nt	nt	92

# Only Sa growth inh, for 2 of the compounds above:
Molecule,Sa growth inh
CC(=O)Oc1cc(C)ccc1C(C)C,104
CCOC(=O)c1c(C)[nH]c(CCC(=O)NCCCN2CCN(c3ccccc3F)CC2)c1C,89

# Back to the main list, starting five compounds before the break.
SMILES	HCMV NEC inh	Sa growth inh	Sa growth inh second temp	GIV Gai3 FP
NC(=O)CC1SC(N)=NC1=O (stereo not given)	13	96	112	102
COc1cc(C2Nc3cc(C)c(C)cc3NC3=C2C(=O)CC(C)(C)C3)c(OC)cc1Br (stereo not given)	-1	nt	nt	105
Cc1[nH]nc2c1C(c1cc(F)cc(F)c1)CC(=O)N2 (stereo not given)	-6	nt	nt	106
Cc1ccccc1NC(=O)CN1C(=O)CC(C)Sc2ccccc21 (stereo not given)	-16	nt	nt	105
COc1ccc(NC(=O)c2nn3c(c2Br)NC(c2cccs2)CC3C(F)(F)F)c(OC)c1 (stereo not given)	-16	nt	nt	92
O=C(CN1C(=O)COc2ccc(Cl)cc21)Nc1cccc(C(=O)O)c1	-31	78	84	105
COc1cc(OCc2ccccc2)ccc1CN1CCN(c2ccc(C(F)(F)F)cn2)CC1	-10	103	90	102
O=C(c1ccco1)N1CC2(c3ccccc3)CN(C(=O)c3ccco3)CC(c3ccccc3)(C1)C2=O	-11	99	79	105
O=C(CSCc1ccc(Cl)c(Cl)c1)Nc1c[nH]c(=O)[nH]c1=O	-5	90	81	nt
COc1ccc(/C=C2\SC(=S)N(/N=C/c3ccc(OC)cc3)C2=O)cc1	nt	89	86	104
CCOc1ccc(S(=O)(=O)N(C)C)cc1-c1nc(C(C)C)no1	-14	nt	nt	101
Cc1cccc(-c2nc3ccccc3c(=O)o2)c1	-26	89	88	100
CC(C)Cn1cc(NC(=O)NCCCN(C)C2CCCCC2)c2ccccc2c1=O	-2	nt	nt	102
COc1cc(OC)cc(-c2nc3ccccc3c(=O)n2NC(=O)/C=C/c2ccc(Br)cc2)c1	7	nt	nt	106
Cc1ccc(-c2nn(C(C)C(=O)Nc3cccc(C)c3C)c(=O)c3c2CCCC3)cc1 (stereo not given)	12	nt	nt	103
Fc1ccc(CSc2nc3ccccc3o2)cc1	2	79	101	nt
CC(C)(C)NC(=O)Nc1cc(C(F)(F)F)cc(C(F)(F)F)c1	6	44	32	105
COc1ccccc1NC(=O)C1CCN(c2nn3cc(-c4ccc(C)cc4)nc3s2)CC1	nt	91	69	103
N/C(=N/O)c1ccccc1	-9	102	94	nt
CCCNc1ccc(F)cc1	6	94	100	109
Cc1ccccc1C(=O)Nc1ccc2c(c1)n(C)c(=O)c(=O)n2C	-22	102	89	106
Cc1cccc(NCN2C(=O)C3C4C=CC(C4)C3C2=O)c1 (stereo not given)	nt	107	87	97
CC(C)CCNc1ncnc2c1sc1nc3c(cc12)COC(C)(C)C3	nt	87	86	99
C=CCN1C(=O)C(Cc2cccc(Cl)c2)SC1=Nc1ccc(C(=O)O)cc1 (stereo not given)	nt	94	77	108
COc1ccc(CC(=O)NN2CCN(c3ccccc3)CC2)cc1	-8	73	93	nt
Cc1nc2cc(CO)ccc2s1	10	99	94	nt
O=C(NCc1ccc(Cl)cc1)c1ccc(NC(=O)N2CCSc3ncccc32)cc1	-15	nt	nt	102
O=C1C(c2sc(=S)n(-c3ccccc3)c2O)=Nc2ccccc21	nt	101	96	105
O=S(=O)(c1ccccc1)c1cnc2cc3c(cc2c1N1CCCCC1)OCCO3	-13	88	79	97
COc1ccc(C2CC(=O)C3=C(C2)Nc2ccccc2NC3c2coc3ccc(C)cc3c2=O)cc1 (stereo not given)	-24	nt	nt	96
Cc1cccc(-c2oc(C)c(C)[n+]2[O-])c1	nt	83	82	100
Cc1noc(C)c1C(=O)O/N=C(/c1cccs1)C(C)(C)C	-5	107	71	103
CC1=NNC(=O)C1CCc1ccncc1 (stereo not given)	nt	110	91	102
COc1ccc(-c2nc(SCC(=O)Nc3ccc4c(c3)OCO4)c(-c3ccccc3)[nH]2)cc1	-10	95	75	101
COc1cc(C(=O)OCc2nnc(-c3ccccc3)o2)ccc1OCC(=O)Nc1ccc(F)cc1	-8	102	88	nt
CN(Cc1ccccc1)C(=O)C1CCN(S(=O)(=O)c2ccc3c(c2)NC(=O)CO3)CC1	-8	nt	nt	107
CC(NS(=O)(=O)N(C)C)c1ccccc1 (stereo not given)	-12	86	88	nt
Nc1cccc(-c2nnc(-c3ccco3)o2)c1	-22	96	64	109
CCC(=O)N1CCc2cc(Br)cc(S(=O)(=O)CCC(=O)NCC3CCCO3)c21 (stereo not given)	nt	99	86	102
Cn1nc(C(C)(C)C)cc1C(=O)N1CCC(C(F)(F)F)CC1	-1	109	90	100
CN(C(=O)CSc1ccccc1C(=O)O)C1CCCCC1	-1	101	92	nt
CC(NC(=O)CCc1nc2sc3c(c2c(=O)[nH]1)CCCCC3)c1ccc2c(c1)OCCO2 (stereo not given)	-4	nt	nt	102
CCNc1nc(NCC)n2c(SCC(=O)/C=C3/N(C)c4ccccc4C3(C)C)nnc2n1	-4	112	104	nt
C/C=C/C(=O)Nc1ccc(-c2nc3ccc(C)cc3s2)cc1	-12	71	87	nt
CC(=O)N1CCCC1c1nc2ccccc2n1Cc1cccc(C)c1 (stereo not given)	-14	113	86	103
COc1ccc(CNc2ccc(C(=O)N3CCc4ccccc43)nn2)cc1	-23	nt	nt	106
Cc1cc(S(=O)(=O)NCC(C)C)ccc1OCC(N)=O	-8	104	103	106
O=C(CSc1nnc(CN2CCCCCC2=O)n1-c1ccccn1)c1ccccc1	-28	76	64	nt
CCCCCOc1ccc(C(=O)/C=C/C(=O)O)cc1	12	39	66	nt
O=C(NC1CCN(Cc2cccc3ccccc23)CC1)c1ccccc1	-30	91	83	110
CC(C)(C)c1ccc(C(=O)Nn2cnc3c(cnn3C(C)(C)C)c2=O)cc1	-12	100	98	101
Cc1ccc(OC(=O)c2ccc3snnc3c2)cc1	-8	90	86	99
CC(=O)N/N=C/c1c(C)[nH]n(-c2ccccc2)c1=O	-16	88	77	96
CCc1cccc(NC(=O)C2CCCN(S(=O)(=O)c3cccnc3)C2)c1 (stereo not given)	nt	107	90	106
Cc1csc(-n2[nH]c(C)c(CCC(=O)Nc3cccc(Cl)c3)c2=O)n1	-8	nt	nt	101
Cc1cccc(CNC(=O)c2cnc3sc(N4CCCCC4)nn3c2=O)c1	nt	115	95	107
CCOC(=O)C1=C(C)N=c2s/c(=C\c3cccc(OC)c3OC)c(=O)n2C1c1cc(OC)ccc1OC (stereo not given)	-17	nt	nt	102
Cc1ccccc1C(=O)NC1CCN(CC(=O)NC2CCCCC2)CC1	0	87	102	99
CCN(CC)CCCNC(=O)Cn1nc(C)n2c(cc3sccc32)c1=O	-31	105	91	102
CC(C)c1cccc(C(C)C)c1NC(=O)c1ccc2ncccc2c1	-13	102	88	nt
COC(=O)c1c(-c2cccs2)csc1NC(=O)CN1CCOCC1	-16	88	83	nt
CS(=O)(=O)N1CCN=C1SCc1ccccc1	-17	94	92	98
COc1cc(NC(=O)CN2C(=O)CCc3cc(Br)ccc32)cc(OC)c1OC	nt	87	80	100
O=C(OCC(=O)c1cc(Cl)ccc1Cl)c1cccc(O)c1	-43	77	32	nt
COCc1[nH]c(=S)[nH]c(=O)c1C	9	106	98	109

# Next part:
SMILES	HCMV NEC inh	Sa growth inh	Sa growth inh second temp	GIV Gai3 FP
CCC(=O)N1CCN=C1SC	nt	94	86	102
CC1=C(c2ccc(C)c(C)c2)S(=O)(=O)N(Cc2ccc(C(=O)NCCC(C)C)cc2)C1=O	-5	nt	nt	100
NNC(=O)c1c(NC(=O)c2ccccc2)sc2c1CCC2	-18	127	94	110
Cc1ccc(-n2ncc(C(=O)N3CCN(c4ccccn4)CC3)c2C2CCN(C(=O)OC(C)(C)C)CC2)cc1C	nt	98	94	109
Cc1cc(OCC(=O)N2CCOCC2)ccc1NC(=O)C1CCCCC1	3	98	97	104
CC12CC3CC(C1)CC(NC(=O)c1ccc(Cl)cc1Cl)(C3)C2	nt	112	105	110
Cc1cc(N)nc2nc(C(F)(F)F)nn12	-27	88	83	nt
CCN1CCCC1CNC(=O)Nc1c[nH]c2ccc(C)cc2c1=O (stereo not given)	-9	99	79	100
Cc1cccc(C(=O)NC(=O)Nc2ccc(-c3cc(C(F)(F)F)nn3-c3ccccc3)cc2)c1	nt	96	86	100
CCOC(=O)C1=C(C)N=c2s/c(=C\c3ccc(N4CCCCC4)o3)c(=O)n2C1c1ccccc1OC (stereo not given)	-23	nt	nt	109
O=C(NCc1ccc(Cl)cc1)C1CCCN(C(=O)c2cnn(-c3ccc(F)cc3)c2-n2cccc2)C1 (stereo not given)	nt	92	82	102
Cc1cc(C)c2c(N)c(C(=O)Nc3ccccc3)sc2n1	nt	141	75	104
CCOC(=O)c1ccccc1NC(=O)c1sc(NC(=O)C23CC4CC(CC(C4)C2)C3)c(C(=O)OCC)c1C	-12	nt	nt	106
Cc1nc(C)c(-c2csc(NCc3ccccc3)n2)s1	-58	95	68	106
COc1ccccc1C(=O)Nc1cccc(C(=O)OCc2cc(=O)n3c4c(sc3n2)CCCC4)c1	nt	87	89	100
Cc1ccc(S(=O)(=O)CCc2nnc(NC(=O)c3ccc(C(C)(C)C)cc3)s2)cc1	0	nt	nt	102
